VDR inh: blocks the human vitamin D receptor | VDR-SRC2-3 peptide fluorescence polarization, 2 h | Potency, µM, inactives show max response, negative = inhibition, most hits filed as inhibitors | 400,000 compounds, 0.93% hits | AID 504847; active = well fitted inhibition curve with a large enough effect; inconclusive = small, poorly fitted or top-dose-only effect, or another doubt; inactive = no such curve, though single readings can be large or run the other way; note: series mostly up to about 120 µM
Target sequence (P11473 whole entry, looked up): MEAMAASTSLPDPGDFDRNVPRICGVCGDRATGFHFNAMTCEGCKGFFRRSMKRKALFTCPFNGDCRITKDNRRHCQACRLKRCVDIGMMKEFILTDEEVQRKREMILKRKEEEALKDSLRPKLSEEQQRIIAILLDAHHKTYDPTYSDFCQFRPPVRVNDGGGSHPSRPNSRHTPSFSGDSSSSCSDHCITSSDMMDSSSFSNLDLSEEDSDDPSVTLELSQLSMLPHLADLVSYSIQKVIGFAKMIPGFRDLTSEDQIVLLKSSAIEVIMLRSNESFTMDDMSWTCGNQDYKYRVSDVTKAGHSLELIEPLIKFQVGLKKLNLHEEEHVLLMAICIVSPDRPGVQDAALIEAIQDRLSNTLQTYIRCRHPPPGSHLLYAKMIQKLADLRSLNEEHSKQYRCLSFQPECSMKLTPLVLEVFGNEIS
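VDR–SRC2-3 interaction, FP format. Cmpds 23 nl via pintool, brief spin, 2 h ambient incubation.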
Active calls of the source: *; & = joins results of further samples. % is set by controls: 0 for no effect and ±100 for the full control effect; potency is the fitted concentration of half-maximal effect.

COc1cccc(S(=O)(=O)Nc2ccc(C(=O)N3CCCCCC3)cc2)c1 was read as VDR inh -12%.
C=CCOc1ccnc(-c2ccccc2)n1 was read as VDR inh -1%.
`Cc1cc(/C=C2\SC(=S)NC2=O)c(C)n1C1CC1` gave VDR inh 11%.
`CC1CCN(C(=O)Cn2c(=O)n(Cc3ccc4c(c3)OCO4)c(=O)c3ccccc32)CC1` gave VDR inh 14%.
Screening CCNc1c(NC(=O)C2CCC(C)CC2)c(=O)oc2ccccc12 (stereo not given) returned VDR inh -2%.
O=C(NCCc1ccc(Cl)cc1)c1ccc(CS(=O)(=O)c2ccc(Cl)cc2)o1 was read as VDR inh 2%.
`CCOC(=O)c1sc(NC(=O)Nc2ccc(F)cc2)nc1C` gave VDR inh -13%.
For Cc1ccc(C(C)C)cc1OCC(=O)Nc1ccccc1N1CCCC1 the results were VDR inh -1%.
CCOC(=O)[C@H]1[C@H]2COc3cc(OC)ccc3[C@@H]2N2C(=O)c3cc(OC)ccc3NC(=O)[C@@]12C was read as VDR inh -3%.
Screening CCOc1ccc(NS(=O)(=O)c2ccc(-c3ccc(=O)[nH]n3)o2)cc1 returned VDR inh -4%.

As a short view, some entries already given.
COc1cccc(S(=O)(=O)Nc2ccc(C(=O)N3CCCCCC3)cc2)c1 was read as VDR inh -12%.
C=CCOc1ccnc(-c2ccccc2)n1 was read as VDR inh -1%.
`Cc1cc(/C=C2\SC(=S)NC2=O)c(C)n1C1CC1` gave VDR inh 11%.

Continuation.
For Cc1ccccc1C(=O)NC(=S)Nc1cccc(NC(=O)C(C)C)c1 the results were VDR inh -4%.
`CC(C)(C)NC(=O)COc1ccc(S(=O)(=O)N2CCCC2)cc1` gave VDR inh -22%.
For COc1cc(C2NC(=O)NC(C)=C2[N+](=O)[O-])cc(OC)c1OC (stereo not given) the results were VDR inh -2%.
Cc1cc(C)c2nc(NNC(=O)c3cc(-c4cccs4)nc4ccccc34)sc2c1 was read as VDR inh -7%.
CCOC(=O)c1ccc(NC(=O)CC2C(=O)N(c3ccccc3)C(=O)N2Cc2cccs2)cc1 (stereo not given) was read as VDR inh 7%.
For CCCC(=O)OC[C@@H](OC(=O)CCC)[C@@H](OC(=O)CCC)[C@H](Cn1c2nc(=O)[nH]c(=O)c-2nc2cc(C)c(C)cc21)OC(=O)CCC the results were VDR inh inconclusive.
COC(=O)c1cc2c(ccn2-c2ccc(F)cc2)n1Cc1ccc(C#N)cc1 was read as VDR inh -18%.
Screening Cc1cc(C(=O)N2CCN(c3ccccc3Cl)CC2)c(C)o1 returned VDR inh -9%.
Screening O=C(NCC1CCCO1)c1cc2c(=O)[nH]c3ccccc3c2s1 (stereo not given) returned VDR inh -5%.
For O=S(=O)(Cc1ccc(Cl)cc1)NCc1cccnc1 the results were VDR inh 5%.
`COc1ccccc1C(=O)O[C@H]1[C@H](Cc2ccccc2)NS(=O)(=O)[C@H]2C[C@@H]3C=C[C@]12O3` gave VDR inh -6%.
For O=C(c1ccc(S(=O)(=O)N2CCC(c3nc4ccccc4s3)CC2)cc1)N1CCCCC1 the results were VDR inh 5%.
O=C(CSc1nnc(CNC(=O)c2ccco2)o1)Nc1ccc(Cl)cc1 was read as VDR inh 11%.
Screening Cc1ccc(Cc2nc3ccccc3nc2SCC(=O)N2CCCc3ccccc32)cc1 returned VDR inh 6%.
CC1CN(CC(=O)Nc2ccccc2Sc2ccccc2)CC(C)O1 (stereo not given) was read as VDR inh 18%.
Cc1ccc(NC(=O)c2ccc(OC(=O)COc3ccc(Cl)c(C)c3)cc2)cc1 was read as VDR inh 8%.
COc1ccc2cc(C#N)c(N3CCN(Cc4nnnn4CCC(C)C)CC3)nc2c1 was read as VDR inh -1%.
Screening Cc1ccc(S(=O)(=O)Nc2ccccc2N=Cc2ccc([N+](=O)[O-])cc2[N+](=O)[O-])cc1 returned VDR inh inconclusive.
For COc1ccc(C(=O)NCc2nnc(SCC(=O)NC3CCCCC3)n2C)cc1 the results were VDR inh -18%.
For COC(=O)c1cc2occc2n1CC(=O)Nc1ccc(N(C)C)cc1 the results were VDR inh 2%.
Screening CCOc1cc(CN2CCN(c3cccc(C(F)(F)F)c3)CC2)ccc1O returned VDR inh 10%.
For Cc1ccc(N2CC(C(=O)Nc3ccc(S(=O)(=O)NCC4CCCO4)cc3)CC2=O)cc1 (stereo not given) the results were VDR inh 0%.
For COc1cccc(C2=NOC(C(=O)Nc3cc(C)on3)C2)c1OC (stereo not given) the results were VDR inh 8%.
`COc1cc(OC)c(C2=NOC(C(=O)NCc3ccc4c(c3)OCO4)C2)cc1Cl` (stereo not given) gave VDR inh -6%.
CC1(C)C(=O)Nc2ccccc2N1C(=O)COc1cc(Cl)ccc1Cl was read as VDR inh -4%.
Screening CC(C)OC(=O)CSc1nc2ccccc2s1 returned VDR inh -2%.
Screening CCOC(=O)Cn1nc(C)c(NC(=O)COc2ccc([N+](=O)[O-])c(C)c2)c1C returned VDR inh 18%.
COc1ccc(CCC(=O)NCCc2ccc(OC)c(OC)c2)cc1 was read as VDR inh -8%.
Cc1ccccc1C(=O)N1CCC(C(=O)NCc2ccc(Cl)cc2)CC1 was read as VDR inh -19%.
For Cc1ccc2oc(-c3ccccc3)nc2c1 the results were VDR inh -21%.
Screening CCN1CCN(CCCNC(=O)c2cc3c(s2)-c2ccccc2OC3)CC1 returned VDR inh 8%&-14%.
For CCCOc1ccccc1C1CC(=O)Nc2cc3c(cc21)OCO3 (stereo not given) the results were VDR inh 11%.
CCOC(=O)c1ccc(NC(=O)COc2coc(CN3CCc4ccccc43)cc2=O)cc1 was read as VDR inh -25%.
Screening COCCNC(=O)C1CC(c2cccc(OC)c2)=NO1 (stereo not given) returned VDR inh 0%.
`CCN1C(=S)N[C@@H](CCc2ccccc2)[C@H](C(=O)OC)[C@H]1C` gave VDR inh -24%.
`C=CCn1c(C)cc(/C([O-])=C(/C(=S)Nc2ccc(OC(F)F)cc2)[n+]2ccc(N(C)C)cc2)c1C` gave VDR inh -4%.
`COc1ccc(Cl)cc1NC(=S)NNC(=O)c1cccnc1` gave VDR inh -17%.
For COC(=O)[C@]1(C)N[C@H](CN(C)C(=O)Nc2ccccc2)[C@@H]2C(=O)N(Cc3ccccc3)C(=O)[C@@H]21 the results were VDR inh 20%.
`COc1cc2c(cc1CN1CCN(C(=O)c3cc(OC)c(OC)c(OC)c3)CC1)OCO2` gave VDR inh 8%.
For CC1(C)OC(=O)C(=Cc2ccc(-c3ccc(Cl)c(C(=O)O)c3)o2)C(=O)O1 the results were VDR inh inconclusive.
`COc1ccc2c(c1)O[C@@]1(CCCC[C@@H]1C)CC2=O` gave VDR inh -7%.
`COc1ccc(CN2CCN(C(=O)c3ccccc3C(=O)c3ccccc3)CC2)cc1OC` gave VDR inh -4%.
COc1ccc(CC(=O)N2CCC3(CC2)NCCc2[nH]cnc23)cc1 was read as VDR inh -9%.
Cc1ccc(COC(=O)CN2C(=O)NC3(CCCCC3C)C2=O)cc1 (stereo not given) was read as VDR inh 7%.
For Cn1cc(/C=C/C(=O)N2CCCC(C(=O)c3ccc(C(F)(F)F)cc3)C2)cn1 (stereo not given) the results were VDR inh 5%.
`O=C(OCc1nc2ccc(Cl)cc2n1CCO)c1ccccc1C(=O)c1ccccc1` gave VDR inh -3%.
`CCN(CC)Cc1c(C(=O)N/N=C/c2ccco2)nnn1-c1nonc1N` gave VDR inh -5%.
For Cn1cccc1Cc1nnc(SCC(=O)Nc2ccccc2F)n1-c1ccc(F)cc1 the results were VDR inh 0%.
Screening O=C(Nc1ccccc1OC(F)F)c1ccc(F)cc1 returned VDR inh 1%.
CC(=O)NNc1ncnc2ccccc12 was read as VDR inh -12%.
Screening O=C(Nc1cc(C(=O)N2CCOCC2)cc(C(=O)N2CCOCC2)c1)c1cc(F)c(F)cc1Cl returned VDR inh -3%.
`Clc1cnc(N/N=C/c2ccco2)c(Cl)c1` gave VDR inh -16%.
For O=C(NCc1ccccc1)N1CCN(c2ccc(Cl)c(Cl)c2)CC1 the results were VDR inh 28%.
For CCCC(C)C(=O)Nc1nc(C)c(-c2csc(Nc3cc(Cl)ccc3C)n2)s1 (stereo not given) the results were VDR inh -17%.
COc1ccc(-c2cc(=O)[nH][nH]2)cc1OC was read as VDR inh 4%.
CCN(C(=O)CSc1nnc(-c2cccs2)o1)C1CCS(=O)(=O)C1 (stereo not given) was read as VDR inh -15%.
Cc1ccc(-n2c(=O)c3c4c(sc3n(CC(=O)Nc3cccc(Cl)c3)c2=O)CCCCC4)cc1C was read as VDR inh -13%.
For COc1ccc(OC)c(C2C3=C(N=c4s/c(=C\c5cccc(O)c5)c(=O)n42)c2ccccc2CC3)c1 (stereo not given) the results were VDR inh -4%.
Screening COc1cccc(CNC(=O)c2ccc(CS(=O)Cc3ccc(C)cc3)o2)c1 (stereo not given) returned VDR inh 12%.
`COc1ccc(NC(=O)CCCn2c(=O)c3sccc3n(Cc3ccc(C)cc3C)c2=O)cc1` gave VDR inh 19%.
Screening CC(=O)N/C(=N/c1nc(C)cc(C)n1)Nc1cc(C)cc(C)c1 returned VDR inh 0%.
For Cc1nc([N+](=O)[O-])cn1CC(=O)Nc1ccc([N+](=O)[O-])cc1 the results were VDR inh 1%.
Screening CCOC(=O)c1c(NC(=O)CSc2nnc(CNc3ccc(OC)cc3)n2C)sc(C)c1C returned VDR inh -25%.
Screening O=C(COC(=O)C1CC1)Nc1ccc(Oc2ccccc2)cc1 returned VDR inh -5%.
For Cc1c(C(=O)c2ccc(Br)cc2)c(=O)n(C)c(=O)n1C the results were VDR inh 9%.
For COC(=O)[C@@]12CCCCN1[C@H](c1ccc(-c3ccc(F)cc3)c(OC)c1)[C@H]1C(=O)N(C)C(=O)[C@H]12 the results were VDR inh 9%.
For COc1ccccc1NC(=O)Cc1coc2cc(C)ccc12 the results were VDR inh -18%.
For O=C(Nc1cccc(C(F)(F)F)c1)C12CC3CC(CC(C3)C1)C2 the results were VDR inh -5%.
For COc1ccc(C(=O)CCNc2ccc(C)c(Cl)c2)cc1 the results were VDR inh -11%.
For CCOC(=O)C1=CN(Cc2ccc(Br)cc2)S(=O)(=O)NC1C (stereo not given) the results were VDR inh 9%.

Entries listed so far with fluorine (10):
`CCOC(=O)c1sc(NC(=O)Nc2ccc(F)cc2)nc1C` gave VDR inh -13%.
COC(=O)c1cc2c(ccn2-c2ccc(F)cc2)n1Cc1ccc(C#N)cc1 was read as VDR inh -18%.
Screening CCOc1cc(CN2CCN(c3cccc(C(F)(F)F)c3)CC2)ccc1O returned VDR inh 10%.
`C=CCn1c(C)cc(/C([O-])=C(/C(=S)Nc2ccc(OC(F)F)cc2)[n+]2ccc(N(C)C)cc2)c1C` gave VDR inh -4%.
For Cn1cc(/C=C/C(=O)N2CCCC(C(=O)c3ccc(C(F)(F)F)cc3)C2)cn1 (stereo not given) the results were VDR inh 5%.
For Cn1cccc1Cc1nnc(SCC(=O)Nc2ccccc2F)n1-c1ccc(F)cc1 the results were VDR inh 0%.
Screening O=C(Nc1ccccc1OC(F)F)c1ccc(F)cc1 returned VDR inh 1%.
Screening O=C(Nc1cc(C(=O)N2CCOCC2)cc(C(=O)N2CCOCC2)c1)c1cc(F)c(F)cc1Cl returned VDR inh -3%.
For COC(=O)[C@@]12CCCCN1[C@H](c1ccc(-c3ccc(F)cc3)c(OC)c1)[C@H]1C(=O)N(C)C(=O)[C@H]12 the results were VDR inh 9%.
For O=C(Nc1cccc(C(F)(F)F)c1)C12CC3CC(CC(C3)C1)C2 the results were VDR inh -5%.

(cont.)
`COc1ccc(Cc2nnc(SC(C)C(=O)Nc3ccc(C(N)=O)cc3)o2)cc1` (stereo not given) gave VDR inh -10%.
For CC(=O)N1CCc2c(sc3c2c(=O)n(-c2ccc(C)cc2)c(=O)n3Cc2ccccc2C)C1 the results were VDR inh 3%.
CCOc1nc(Nc2ccccc2F)nc(OCC)n1 was read as VDR inh -8%.
CN(C)S(=O)(=O)c1cccc(NC(=O)Cn2cc(C(F)(F)F)cc(Cl)c2=O)c1 was read as VDR inh -29%.
`CCOC(=O)C1CCN(C(=O)CN(c2cccc(C(F)(F)F)c2)S(C)(=O)=O)CC1` gave VDR inh -1%.
CC(CN1C(C)CCCC1C)OC(=O)c1ccccc1F (stereo not given) was read as VDR inh 8%.
`O=C(COc1cccnc1[N+](=O)[O-])Nc1ccc(N2CCOCC2)cc1` gave VDR inh -22%.
Cc1ccc(CNC(=O)C2(C(F)(F)F)C/C(=C\Cc3ccccc3)CCCO2)o1 (stereo not given) was read as VDR inh inconclusive.
Screening COc1ccc(CC(=O)Nc2ccc(N3CCCC3)c(C)c2)cc1 returned VDR inh -9%.
Nn1c(SCC(=O)Nc2ccccc2F)nnc1-c1cccnc1 was read as VDR inh -11%.
For O=C(c1ccc(S(=O)(=O)N2CCCCC2)cc1)N1CCc2ccccc2C1 the results were VDR inh 6%.
`CCOC(O)[C@H]1N[C@@H](c2ccc(Cl)cc2)[C@@H]([N+](=O)[O-])[C@@H]1c1ccccc1` (stereo not given in full) gave VDR inh 2%.
Screening CN(C)/C=N/C(=S)Nc1ccc(Cl)cc1 returned VDR inh -12%.
CCN(CC)C(=O)c1sc2c(c1C)c(=O)n(-c1ccc(C)c(C)c1)c(=O)n2Cc1cc(=O)n2ccccc2n1 was read as VDR inh 8%.
O=C(N[C@@H](Cc1c[nH]c2ccccc12)C(=O)O)C1CCN(S(=O)(=O)c2ccc(Cl)cc2)CC1 was read as VDR inh -4%.

Bioassay records deposited in PubChem BioAssay by National Center for Advancing Translational Sciences (NCATS).

Only part of the results is shown; count on the stated rates, not on these rows.
